From PubChem BioAssay
Calb biofilm kill: mixtures killing C. albicans biofilm | C. albicans biofilm persisters + clotrimazole, fluorescence viability; primary screen in compound mixtures of four per well | inhibition, % at 7.6 µM | hit rate 0.02% among 120,000 | AID 1242;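 active means inhibition above 30.3% in the primary screen of four-compound pools, then above 30% when the compound was retested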;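 further: compounds exposed to preformed 24 h biofilms for 48 h; the number belongs to the whole pool; some results filed as inactive read as strong as hits; inactives centre near 12; 0% = biofilm with clotrimazole alone and 100% = kill control; retested singly at about 60 µM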
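System: C. albicans CAF4-2 wild-type biofilms; Medium: RPMI/MOPS medium, pH 7.0; Reagent: Clotrimazole, 50 µg/mL; Times: biofilm formation 24 h, compound exposure 48 h, 37 °C; Detection: 2-h Alamar Blue fluorescence, 535/590 nm excitation/emission; Evaluation: percent inhibition of biofilm viability.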
An asterisk follows results filed as active. This is a subset (hit frequency here may not be typical).

SMILES	Calb biofilm kill
CCc1cccc(NC(=O)Cn2c(-c3ccccc3)cc(C(C)=O)c2C)c1	12
CC(=O)c1cccc(CN2CCC(CO)(CCCc3ccccc3)CC2)c1	8
COc1ccc(C)c(NC(=O)C2CC(=O)NC3=C2C(=O)CCC3)c1 (stereo not given)	3
O=C(COC(=O)c1cnc(Cl)c(Cl)c1)Nc1ccc(S(=O)(=O)N2CCCC2)cc1	18
O=C(NCc1ccccc1)c1onc(CSc2ccccn2)c1C(=O)NCc1ccccc1	12
COC(=O)CCCC1=CC2=C(c3ccccc3)C(=O)C(C)(OC(=O)C3CCCC3)C(=O)C2=CN1c1ccccc1 (stereo not given)	13
Cc1onc(-c2c(Cl)cccc2Cl)c1C(=O)NC1C(=O)N2C1SC(C)(C)C2C(=O)O (stereo not given)	11
CCOC(=O)C1(Cc2cccc(OC)c2)CCN(Cc2cc(OC)ccc2OC)CC1	12
O=C(COC(=O)c1ccccc1)Nc1ccccc1Br	1
COc1ccccc1C/C(N)=N/OC(=O)c1cccs1	10
COc1ccc2[nH]c3c(c2c1)CCC/C3=N\N	10
COc1ccc(/C=C/C(=O)NNc2cc(=O)n(C)c(=O)n2C)cc1OC	6
C#CC[N+](C)(C)CCCCCCCC	19
COc1ccc(NC(=O)CSc2nc3c([nH]c4ccccc43)c(=O)n2C)cc1	16
Nc1nonc1C(=O)NCCNS(=O)(=O)c1ccc(F)cc1	9
Cc1sc(NC(=O)CSc2ncn(-c3ccccc3)n2)nc1-c1ccccc1	7
COc1ccc(N2CCN(C(CNS(=O)(=O)c3ccc4c(c3)OCCO4)c3ccco3)CC2)cc1 (stereo not given)	10
CCOP(=O)(OCC)/C(=N/OC(=O)c1cccc([N+](=O)[O-])c1)C(N)=O	17
Cc1c(C(=O)OCC(=O)Nc2ccccc2OC(F)F)cccc1[N+](=O)[O-]	9
COc1ccc2cc3c(N)nn(C(=O)c4ccccc4[N+](=O)[O-])c3nc2c1	22
CCCCCn1nnc2c(=O)oc3ccccc3c21	9
COc1ccccc1C1(O)CCN(CC(=O)Nc2nc(-c3ccccc3)cs2)CC1	9
O=C(Nc1ccc2c(c1)OCCO2)c1ccc(Cl)c([N+](=O)[O-])c1	20
COc1ccc(CC(=O)NCc2nnc(SCc3ccc(C)cc3)n2C)cc1	2
CC(C)OCCCNc1ncc2c(n1)CC(c1ccccc1)CC2=O (stereo not given)	3
Cc1ccc(-n2nc3ccc(NC(=S)NC(=O)/C=C/c4ccco4)cc3n2)cc1	7
CCCN(CCC)CC(O)Cn1cc(/C=C/C(=O)c2ccccc2)c2ccccc21 (stereo not given)	8
O=c1[nH]c2ccccc2n1CCCN1CCCCC1	4
Cc1onc(-c2ccccc2)c1C(=O)NC(=S)Nc1sc2c(c1C#N)CCC(C)C2 (stereo not given)	9
Cc1cccc(C)c1-n1c(C)nn(CC#N)c1=O	4
COC(=O)C(=C/C=C/N1CCOCC1)C(=O)OC	4
Cc1ccc(NC(=O)ON=C2CCCC2)cc1	6
NC1=NC(=O)S/C1=C\c1ccc(O)cc1	8
Cc1oc(-c2ccc3c(c2)OCCO3)cc1C(=O)NC(Cc1ccccc1)C(=O)O (stereo not given)	12
CCN(CC)C(=O)c1cc(Cl)ccn1	-6
CC(Cl)C(=O)Nc1cc(C(F)(F)F)ccc1N1CCOCC1 (stereo not given)	5
O=c1[nH]c(SCc2cccc(Cl)c2)nc2[nH]ncc12	14
Cc1onc(-c2c(F)cccc2Cl)c1C(=O)OCC(=O)NC(=O)NCC(C)C	20
COCCn1c(Cc2cccn2C)nnc1SCC(=O)Nc1nccs1	13
COc1ccc(C2CC(c3cccs3)=NN2C(=O)CSc2nncn2C)cc1OC (stereo not given)	19
COc1ccc(-n2c(=O)c3ccccc3n(CC(=O)Nc3ccccc3OC)c2=O)cc1	29
COC(=O)N/N=C1\CCCc2c(C)cc(C)cc21	12
O=C(/C=C/c1cccc(F)c1)N1CCc2ccccc21	-1
CCOc1ccc(NC(=O)CN(C)S(=O)(=O)c2ccc3c(c2)CCC(=O)N3)cc1	19
O=C(Nc1ccccn1)c1ccc2nc(-c3ccccc3)c(-c3ccccc3)nc2c1	7
O=C(CSc1ncnc2ccccc12)Nc1cccc(S(=O)(=O)N2CCCC2)c1	0
C#CCOCCOCCOCCNc1nc(N2CCOCC2)nc(N2CCN(C(=O)Cn3cc(CCCN=C(N)N)nn3)CC2)n1	11
O=[N+]([O-])c1ccc(O)c2cccnc12	8

In a second layout: entries from further up
SMILES | Calb biofilm kill
O=c1[nH]c2ccccc2n1CCCN1CCCCC1 | 4
O=c1[nH]c(SCc2cccc(Cl)c2)nc2[nH]ncc12 | 14
COc1ccc(-n2c(=O)c3ccccc3n(CC(=O)Nc3ccccc3OC)c2=O)cc1 | 29
CCCCCn1nnc2c(=O)oc3ccccc3c21 | 9

More compounds follow:
SMILES	Calb biofilm kill
Cc1ccc(Cn2c([N+](=O)[O-])cnc2C)cc1	14
O=C1N(Cc2cccc(Cl)c2)C[C@@H]2C[C@@H](c3cccn3-c3nccs3)N3CCC[C@@]123	15
Cc1c(Br)c([N+](=O)[O-])nn1C(C)C(=O)NCC1CCCO1 (stereo not given)	4
CCOc1ccccc1NC(=O)COC(=O)C(CC(C)C)N1C(=O)C2CC=CCC2C1=O (stereo not given)	19
O=C(Nc1nc2cc3c(cc2s1)OCCO3)C1=COCCO1	24
CC(C)Cc1csc(NC(=O)c2ccc(Cl)cc2)c1C(=O)O	19
Cc1nn(-c2ccccn2)c2c1C(=O)CC(C)(C)C2Br (stereo not given)	4
O=C(OCc1ccccc1)C1=NNC2C(=O)N(Cc3ccccc3)C(=O)C12 (stereo not given)	-4
CNC(=O)NC(=O)C(C)OC(=O)c1c2c(nc3ccccc13)/C(=C/c1cccs1)CC2 (stereo not given)	13
O=C(N/N=C/c1c[nH]c2ccccc12)C1CC1(c1ccccc1)c1ccccc1 (stereo not given)	14
Cc1cccn2c(=O)c(/C=C(\C#N)C(=O)NCc3ccco3)c(N3CCOCC3)nc12	17
CN(Cc1ccccc1)C(=O)c1ccc2c(c1)NC(=O)C(N1CCOCC1)S2 (stereo not given)	6
CCOC(=O)CCNC(=O)N1CCCC(C(=O)c2ccc3c(c2)OCO3)C1 (stereo not given)	13
Cc1cc(NC(=O)CSc2nc3c(cc2C#N)CCCC3)no1	20
CC(C)Cn1c(=O)oc2ccccc21	53
O=C(COc1ccc(Br)cc1)Nc1ccc(Cc2ccncc2)cc1	10
NC(=O)C[n+]1cccc(/C=N/O)c1	6
O=C(c1ccco1)N1CCN(CCOc2ccccc2)CC1	24
O=[N+]([O-])c1cccc(C2=NCCC(c3ccccc3)O2)c1 (stereo not given)	6
CCC(C)(C)n1nnnc1C(c1ccc(C)cc1)N1CCN(C(=O)c2ccco2)CC1 (stereo not given)	18
CCN(Cc1ccccc1)C(=S)Nc1cc(C(=O)OC)ccc1C(=O)OC	11
Cc1noc2ncnc(Sc3ccc(Br)cc3)c12	13
CC1=C(C(=O)OCc2ccc3c(c2)OCO3)C(c2ccccc2)NC(=O)N1 (stereo not given)	18
Cc1cc(C)nc(SCCC(=O)Nc2ccc(F)cc2)n1	12

4 entries from above, with bars between the fields:
SMILES | Calb biofilm kill
CCOC(=O)CCNC(=O)N1CCCC(C(=O)c2ccc3c(c2)OCO3)C1 (stereo not given) | 13
Cc1cc(NC(=O)CSc2nc3c(cc2C#N)CCCC3)no1 | 20
CC(C)Cn1c(=O)oc2ccccc21 | 53
O=C(COc1ccc(Br)cc1)Nc1ccc(Cc2ccncc2)cc1 | 10

Reformatted bar-delimited: seven of the compounds above.
SMILES | Calb biofilm kill
Cc1cc(C)nc(SCCC(=O)Nc2ccc(F)cc2)n1 | 12
Cc1cc(NC(=O)CSc2nc3c(cc2C#N)CCCC3)no1 | 20
CC1=C(C(=O)OCc2ccc3c(c2)OCO3)C(c2ccccc2)NC(=O)N1 (stereo not given) | 18
Cc1noc2ncnc(Sc3ccc(Br)cc3)c12 | 13
O=C(c1ccco1)N1CCN(CCOc2ccccc2)CC1 | 24
CCC(C)(C)n1nnnc1C(c1ccc(C)cc1)N1CCN(C(=O)c2ccco2)CC1 (stereo not given) | 18
CCN(Cc1ccccc1)C(=S)Nc1cc(C(=O)OC)ccc1C(=O)OC | 11

(further entries)
SMILES	Calb biofilm kill
O=C(O)c1ccc(OCC(O)Cn2c3ccccc3c3ccccc32)cc1 (stereo not given)	30
CCCOc1ccc(C(=O)NCC(C)(C)N2CCOCC2)cc1	12
COC(CNc1ccc([N+](=O)[O-])c(NCC(OC)OC)c1C#N)OC	18
O=C(CSc1ncccn1)N1CCC(Cc2ccccc2)CC1	15
C=CCNC(=S)NCC1COc2ccccc2O1 (stereo not given)	13
COc1ccc(N2CCN(C(=O)Cn3c(=O)[nH]c4ccccc4c3=O)CC2)cc1	3
CC(=O)Nc1ccc(Nc2ccc3nonc3c2[N+](=O)[O-])cc1	8
CC(=O)Nc1ccc2c(CSc3nnc(-c4cccnc4)n3-c3ccc(C)cc3C)cc(=O)oc2c1	11
CCCCOc1ccc(-c2ncc([N+](=O)[O-])cn2)cc1	-2
COc1cc(NC(=O)c2ccc(OC)c([N+](=O)[O-])c2)ccc1NC(=O)c1ccco1	9
COCCn1c(=NC(=O)CSCC(=O)Nc2cc(C)on2)sc2cc(C(=O)OC)ccc21	-4
O=C(NCC1CCN(S(=O)(=O)c2ccccc2)CC1)Nc1ccccc1	17
Nn1c(-c2ccc(O)cc2)nnc1-c1ccc(O)cc1	17
COc1ccccc1-[n+]1c(C)cc(/C=C2\Sc3ccccc3N2C)cc1C	17
O=C(CN1CCNC(=O)C1)NCCc1ccc(Cl)cc1Cl	7
O=C(Nc1ccc(Cl)cc1)[C@@H]1[C@@H]2C(=O)N(c3cccc(F)c3)C(=O)[C@@H]2[C@H]2C=CC=NN21	16
O=C(/C=C/c1cn(CC(O)CN2CCCCC2)c2ccccc12)c1ccccc1 (stereo not given)	8
CSc1nc2sc3c(c2c(=O)[nH]1)CCc1ccccc1-3	24
COc1ccccc1C(=O)NNC(=O)c1cccc(Cl)c1	23
Cc1cccc(N2CCN(C(=O)N3CCOCC3)CC2)c1C	12
CC(C(=O)Nc1ccccc1C(=O)N1CCOCC1)N(c1ccccc1)S(C)(=O)=O (stereo not given)	10
Cc1nc2ccc(NC(=O)c3ccc(Cl)c([N+](=O)[O-])c3)cc2s1	19
Cc1ccc(CN2CCN(CC(=O)N=Nc3c(O)[nH]c4ccccc34)CC2)cc1	15
Cc1ccc(S(=O)(=O)N2CCN(C(=O)CSc3nccn3C)CC2)cc1	5
CCCC(=O)C1=C(N2CCCCC2)CC(C)(C)C(C(=O)OC)C1=O (stereo not given)	23
O=c1[nH]cc(S(=O)(=O)c2ccccc2)[nH]1	3
Cc1ccc(S(=O)(=O)n2cc(C=O)c3ccccc32)cc1	14
O=C(CNC(=O)c1cccc(OC(F)F)c1)OCc1cc(=O)n2cc(Br)ccc2n1	4
CCOc1cc(N2CCOCC2)c(OCC)cc1NC(=O)C1=NN(c2cccc(C)c2)C(=O)CC1	16
CC(C)=CCc1c(O)c(CC=C(C)C)c2occ(-c3ccc(O)cc3)c(=O)c2c1O	19
CSc1ccc(/C=N/NC(=O)c2ccccc2Cl)cc1	7
CC(=O)NN1C(=O)/C(=C\c2ccc(Br)o2)SC1=S	0
COCCNc1c2c(c(C#N)c3nc4ccccc4n13)CCCC2	-2
Clc1ccc(C2=Nn3c(Cn4nnc5ccccc54)nnc3SC2)cc1	19
CCCCn1c(N)c(-c2nc3ccccc3o2)c2c([N+](=O)[O-])nn(C)c(=O)c21	14
COC(=O)[C@@H]1C[C@]2(OC(=O)c3ccccc3)C=CC(=O)C[C@@H]2N1C(=O)OCc1ccccc1	10
Cc1ccc(C)c(N(Cc2cc3ccc(C)cc3[nH]c2=O)C(=O)c2ccco2)c1	3
CC(C)C(=O)NC(c1cccc([N+](=O)[O-])c1)c1c(O)ccc2ccccc12 (stereo not given)	5
CCNc1ccc(C(=O)OCC(=O)NCCN2C(=O)CSC2=O)cc1[N+](=O)[O-]	3
O=C(N/C(=C\c1cccc([N+](=O)[O-])c1)C(=O)N1CCOCC1)c1ccc([N+](=O)[O-])cc1	-6
O=C(Cn1ccc([N+](=O)[O-])n1)N1CCc2ccccc21	6
CC(C)c1nc(C#N)c(N2CCOCC2)o1	-1
Cc1nnc(SC(C)C(=O)NC2CCCc3ccccc32)n1-c1ccccc1 (stereo not given)	10
COc1cc(NC(C)=O)c2ncccc2c1NC(C)=O	20
COc1ccc(Br)c(-c2nc(CS(=O)(=O)c3ccc(F)cc3)no2)c1	7
CN1CCN(C(=O)/C(C#N)=C/c2ccc(OC(F)F)cc2)CC1	9
Cc1csc(NC(=O)c2ccc(S(=O)(=O)N3CCCC3)cc2)n1	14
O=C(Nc1ccc(OC(F)(F)F)cc1)Oc1ccccc1N1CCCCC1	19
N#Cc1nc(Cc2ccccc2)oc1NCc1ccccc1	-3
CCOc1ccccc1N(C)C(=O)c1nn(-c2ccc(OC)cc2OC)c(=O)c2ccccc12	19
Cc1ccc(N=Nc2c(N)nn3c(C)cc(C)nc23)cc1	14
COc1ccc(CNC(=O)C(c2ccco2)N(C(=O)Cc2cccs2)c2cccnc2)cc1 (stereo not given)	7
CCS(=O)(=O)c1nc(S(=O)(=O)c2ccc(Cl)cc2)c(NCc2ccco2)s1	-1
CN(C)C(=O)c1cc(C(=O)c2ccccc2C(F)(F)F)c[nH]1	14
COc1cc(C(CC(=O)N2CCCC2)c2c(OC)cc(OC)c3ccc(=O)oc23)cc(OC)c1OC (stereo not given)	16

A second format for some results above.
SMILES | Calb biofilm kill
COc1ccc(CNC(=O)C(c2ccco2)N(C(=O)Cc2cccs2)c2cccnc2)cc1 (stereo not given) | 7
CCS(=O)(=O)c1nc(S(=O)(=O)c2ccc(Cl)cc2)c(NCc2ccco2)s1 | -1
CN(C)C(=O)c1cc(C(=O)c2ccccc2C(F)(F)F)c[nH]1 | 14
